eIF4H inh: human eIF4H binding inhibitors, primary screen, translation initiation inhibitor project, biochemical, uHTS, fluorescence polarization; Eukaryotic translation initiation factor 4H (Homo sapiens), Q15056; eIF4H fluorescence polarization binding assay; inhibition, % at 35 µM; actives 0.94% (n = 290,000);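 active = 50% or more with normal probe brightness, or confirmed in later tests; inconclusive = above 50% with abnormal brightness, or retests that disagree; inactive = below 50% or failed in later tests; about a fifth of its hits are not listed in these tables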;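 note: calls also rest on retests at 20 µM and on dose response follow-up; 0% = protein and probe with vehicle and 100% = probe without protein; strong numbers were not always called active; many hits fall short of the cut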
PABP FP inh: PABP poly(A) RNA binding inhibitors, primary screen, biochemical, fluorescence polarization, uHTS; inhibition, % at 35 µM; actives 1% (n = 290,000); Polyadenylate-binding protein 1 (Homo sapiens), P11940;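 active = 50% or more with normal probe brightness, or confirmed in later tests; inconclusive = above 50% with abnormal brightness, or retests that disagree; inactive = below 50% or failed in later tests; about a fifth of its hits are not listed in these tables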;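 note: calls also rest on retests at 20 µM and on dose response follow-up; controls were probe without protein and protein plus probe with vehicle; some compounds called inactive have numbers as strong as hits; many hits fall short of the cut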
Target sequence (P11940 whole entry, looked up): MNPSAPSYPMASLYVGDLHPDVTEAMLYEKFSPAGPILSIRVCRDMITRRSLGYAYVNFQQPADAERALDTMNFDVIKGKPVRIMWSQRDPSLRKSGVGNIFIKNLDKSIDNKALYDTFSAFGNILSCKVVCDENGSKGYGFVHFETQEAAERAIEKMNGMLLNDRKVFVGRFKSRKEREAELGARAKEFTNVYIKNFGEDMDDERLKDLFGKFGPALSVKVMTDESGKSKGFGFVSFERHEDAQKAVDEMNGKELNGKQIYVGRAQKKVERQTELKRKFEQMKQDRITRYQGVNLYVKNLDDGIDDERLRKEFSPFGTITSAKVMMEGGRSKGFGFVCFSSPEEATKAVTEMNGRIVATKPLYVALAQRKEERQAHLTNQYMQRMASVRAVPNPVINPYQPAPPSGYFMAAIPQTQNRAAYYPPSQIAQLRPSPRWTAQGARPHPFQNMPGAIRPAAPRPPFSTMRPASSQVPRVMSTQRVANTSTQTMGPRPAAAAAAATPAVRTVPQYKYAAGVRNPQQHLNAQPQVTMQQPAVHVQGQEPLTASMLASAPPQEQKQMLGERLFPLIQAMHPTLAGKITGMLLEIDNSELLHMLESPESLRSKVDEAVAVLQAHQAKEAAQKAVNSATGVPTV
Rce1 inh: yeast Rce1p protease inhibitors, primary screen, biochemical, fluorescence, cell-free homogeneous. yeast membranes, quenched prenylated peptide cleavage fluorescence. calls only. actives 0.27% (n = 290,000). CAAX prenyl protease 2 (Saccharomyces cerevisiae (strain ATCC 204508 / S288c)), Q03530;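 active = fall in fluorescence gain of 50% or more versus controls, with final raw signal at or below 3038400; inconclusive = same 50% fall but final raw signal above 3038400; inactive = fall in fluorescence gain under 50%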;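 note: plate controls were neutral control wells for no effect and wells lacking membranes for full effect; tested at 10 µM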
Target sequence (Q03530 whole entry, looked up): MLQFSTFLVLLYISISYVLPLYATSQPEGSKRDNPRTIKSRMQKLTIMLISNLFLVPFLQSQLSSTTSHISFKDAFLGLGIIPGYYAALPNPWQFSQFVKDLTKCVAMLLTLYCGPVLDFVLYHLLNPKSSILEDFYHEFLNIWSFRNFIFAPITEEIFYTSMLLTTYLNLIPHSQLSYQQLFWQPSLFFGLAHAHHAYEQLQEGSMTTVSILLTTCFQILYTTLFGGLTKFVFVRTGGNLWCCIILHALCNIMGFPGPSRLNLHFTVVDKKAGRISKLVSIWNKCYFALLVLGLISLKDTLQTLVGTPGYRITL
CSC inhib: cancer stem cell viability inhibitors, primary screen, luminescence. inhibition, % at 7.5 µM. actives 1.1% (n = 300,000). cancer stem cell-like cells viability. AID 2717, 2010;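 active = mean at 75% or more and at least half the replicates too; inconclusive = mean and replicates disagree; tested in HMLE shEcad cells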;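 note: 0% = median of negative and 100% = median of positive control wells; the first replicate is given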
MT1-MMP act inh: blockers of MT1-MMP proenzyme processing, primary screen, HT1080 RFP-PRO-GFP cells, GFP/RFP fluorescence | GFP/RFP ratio fluorescence, overnight; percent of plate control window, DMSO zero | GFP/RFP ratio change, % at 20 µM | actives 0.061% (n = 360,000) | AID 651647, 2012;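 active = GFP/RFP ratio change of at least 30% with cell ATP level not reduced by more than half and red fluorescence within 50% of control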; note: strong numbers were not always called active
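Compound: 20 µM single dose, 1% DMSO / System: HT1080 RFP-PRO-GFP cells / Controls: DMSO and RFP-L50D-GFP cell wells / Read-out basis: GFP/RFP fluorescence ratio / Schedule: overnight compound exposure at 37 °C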
HIV Env fusion: inhibitors of HIV-1 Env-driven cell-cell fusion, primary screen, HeLa-JRFL effector, CEM21 target cells, luciferase; AID 651610, 2012; actives 1.1% (n = 360,000); inhibition, % at 12.3 µM;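 active = mean replicate inhibition score of at least 50 and every replicate individually at or above 50; inconclusive = only one of the two criteria met; inactive = mean below 50 and not all replicates reaching 50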;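 note: 0% = plate neutral controls and 100% = maraviroc near 300 nM; one replicate is shown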
UUG fidelity: modulators of yeast start codon fidelity, primary screen, whole organism, S. cerevisiae, single point, plate reader; AID 602363, 2012; activity score, % at 18.7 µM; S. cerevisiae UUG-firefly luciferase reporter, luminescence/redox ratio; actives 0.13% (n = 350,000);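 active = replicate mean at a twofold rise or more, about +100% in these data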;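 note: firefly luciferase made from a UUG start codon reports start codon fidelity; reporter light over untreated wells divided by growth signal over untreated wells; some hits fall short of that in this replicate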
PABP FP inh retest: recorded beside PABP FP inh, whose call it bears; inhibition, %; compound at 20 µM; confirmation repeats;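 mean of two retest wells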
MT1-MMP act inh RFP: recorded beside MT1-MMP act inh, whose call it bears; RFP signal change, %; measured here: RFP expression control read;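 0 = vehicle wells; hits needed this value within 50% of zero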
Starred values were filed as active, the others as inactive; i = inactive; ? = inconclusive; · = no result given; & = joins results of further samples; [ ] = another dose, or the depositor's remark.

SMILES	eIF4H inh	PABP FP inh	Rce1 inh	CSC inhib	MT1-MMP act inh	MT1-MMP act inh RFP	HIV Env fusion	UUG fidelity	others
CCCNC(=S)NCCN1CCCCC1	10.5	-9.2	i	-11.5	1.0	0.0	26.1	-26.6
COc1ccc(NC(=O)CN(C)C(=O)c2cn(-c3ccccc3)nc2-c2ccc(Cl)cc2)cc1	·	·	i	-3.1	1.5	-4.0	8.8	-2.0
Cc1ccc(NC(=O)COC(=O)CCNS(=O)(=O)c2c(Cl)cccc2Cl)cc1	·	·	·	-11.5	2.6	5.1	-9.0	-34.2
CC(C)=CCN1CCN(Cc2cnc(-c3ccccc3)s2)CC1CCO (stereo not given)	-4.7	-0.6	i	49.6	0.4	2.2	6.2	-18.5
CCC(=O)N/C(=N\OCc1ccc(F)cc1)c1nonc1NC(=O)CC	4.0	5.9	i	-10.7	4.2	6.8	-1.2	-14.1
Cc1cc(C)c(S(=O)(=O)N2CCN(C(=O)C3COc4ccccc4O3)CC2)c(C)c1 (stereo not given)	·	·	·	·	-0.6	-1.8	2.4	-8.0
CN1CCc2c(sc3c2C(=O)NC(c2ccc(-c4cccc(Cl)c4)o2)N3)C1 (stereo not given)	?	?	i	14.4	-29.0	8.8	·	12.6
CC(C)c1ccc(S(=O)(=O)N2CCN(C(C)C(=O)NC3CCCC3)CC2)cc1 (stereo not given)	·	·	·	·	2.4	-2.8	-0.7	-15.6
Cc1[nH]c2ccccc2c1-c1csc(N)n1	0.2	1.7	i	2.0	8.7	15.3	30.7	-26.1
COc1ccc(CCNC(=O)CS(=O)(=O)Cc2nc(-c3ccccc3Cl)oc2C)cc1OC	-7.9	-15.4	i	-1.8	-2.1	0.1	6.9	-2.8
O=C(COc1ccc(S(=O)(=O)Nc2ccc(Cl)cc2)cc1)N1CCOCC1	1.0	-2.0	i	-12.1	4.7	-6.9	12.2	16.4
Cc1oc(-c2ccc(Cl)cc2)nc1CN1CCC(C(=O)N2CCN(Cc3ccccc3)CC2)CC1	-5.2	2.5	i	1.7	4.7	-5.7	-3.5	-7.6
CNc1cc(-c2cccc(C(=O)N3CCOCC3)c2)ncn1	·	·	·	·	5.1	7.0	16.6	-1.9
COCCN1C(=O)N(c2cccc(OC)c2)C(=O)C1CC(=O)Nc1ccc(Cl)cc1 (stereo not given)	-16.2	-14.3	i	-10.3	0.0	0.7	10.2	3.8
NC(=O)c1ccc(Nc2ccc3nonc3c2[N+](=O)[O-])cc1	-14.2	2.6	i	·	4.1	0.7	6.2	13.7
COc1ccc(C(=O)CSc2nnc(CNC(=O)c3ccco3)n2C)cc1	-5.6	-4.5	i	-4.9	0.5	2.3	-1.6	·
Cc1ccc2nc(COC(=O)CNC(=O)c3ccccc3)cn2c1	·	·	·	·	-5.4	-1.3	1.2	-18.4
CC(C)n1c(SCC(=O)N2CCCC2)nc2c1c(=O)n(C)c(=O)n2C	-3.2	-3.2	i	-2.7	1.2	4.1	·	-11.5
Cn1cc(C(=O)c2ccc(Cl)cc2Cl)cc1C(=O)N/N=C(\N)COc1ccccc1	-6.7	-10.1	i	10.1	-8.1	-6.1	·	2.5
C/C(=N\NC(=O)c1nnn(-c2nonc2N)c1CSc1ccc(Cl)cc1)c1ccco1	-0.8	-8.8	i	-6.0	2.6	4.5	9.4	-8.4
Cc1ccc(NC(=O)OCCN2CCN(Cc3ccccc3)CCC2=O)cc1C	1.9	7.4	i	14.1	0.3	-3.0	3.8	-5.3
FC(F)(F)c1cccc(-c2nc3nc(Cl)c(Cl)nc3[nH]2)c1	?	31.6*	i	75.6*	-26.1	-30.6	·	-13.1	PABP FP inh retest=95.6*
COc1cccc(C(=O)Nc2ncc3c(n2)CC(C)(C)CC3=O)c1	-6.8	-0.4	i	-7.2	-4.1	-1.0	·	-2.7
NC(=O)CCn1c2ccccc2c2ccccc21	4.3	-2.9	·	-2.7	0.4	1.9	3.6	·
Cn1c(CC(=O)Nc2ccccc2Cl)nnc1SCC(=O)NC1CCCCC1	-5.5	3.9	i	-26.0	-1.0	2.5	2.9	-8.2
Other entries.
SMILES	eIF4H inh	PABP FP inh	Rce1 inh	CSC inhib	MT1-MMP act inh	MT1-MMP act inh RFP	HIV Env fusion	UUG fidelity	others
COc1ccc(S(=O)(=O)N2CCC(C(=O)NCc3ccncc3)CC2)cc1	·	·	i	-25.1	1.7	3.9	-0.9	-1.6
CCc1c(C)sc(NC(=O)CC#N)c1C#N	73.9*	86.7*	i	0.9	-27.3	7.7	·	9.9
O=C(N/N=C/c1cccc([N+](=O)[O-])c1)C(=O)N1CCCCCC1	-2.9	4.5	·	-8.8	2.7	1.2	11.2	-0.4
COc1ccc(C(=O)NCCCN2CCOCC2)cc1	-13.4	-14.0	i	10.9	1.3	3.3	-8.2	-13.8
Cc1ccc(NC(=O)N2CCCC(c3nc(-c4ccc(F)cc4)no3)C2)cc1 (stereo not given)	-0.6	6.1	i	5.5	3.4	-4.8	6.2	24.5
CCOc1ccc(CN(CC)C(=O)c2ccc3c(c2)[nH]c(=O)c(=O)n3CC)cc1OC	12.9	12.0	i	-11.8	10.7	4.1	4.6	-8.6
C[C@H]1CN(CCc2ccccc2)C(=O)[C@@H]1CC(=O)NCc1ccccc1	7.2	2.8	i	21.6	1.6	2.4	-12.8	1.6
COc1ccc(NC2CCCN(C(=O)COc3ccc(C)cc3)C2)cc1 (stereo not given)	1.1	-8.8	i	-2.1	-0.2	1.0	-7.9	-0.6
CN(C)Cc1cn(CC[C@@H]2CC[C@@H](NC(=O)Nc3ccccc3F)[C@@H](CO)O2)nn1	·	·	·	·	1.5	3.6	-9.4[16.7 µM]	-6.8
Cc1nn(C)cc1CN(C)C(=O)CCc1nnc(CCC2CCCCC2)o1	0.5	-2.0	i	-3.3	2.0	-0.7	-6.9	·
O=[N+]([O-])c1ccc(CCn2ccnc2)cc1	-7.3	-7.1	i	7.5	4.6	7.1	11.0	-17.9
COc1cccc(/C=C/C(=C2/C(=O)N(c3ccccc3)N=C2C)c2ccc(Br)cc2)c1OC	13.9	-6.4	i	75.5*	3.3	2.7	·	·
CCCCCCCCOC(=O)CCc1c(C)[nH]c(=S)[nH]c1=O	-2.7	-5.2	i	2.1	4.8	-3.3	·	-23.7
O=C(Nc1cccc(F)c1)c1coc(=O)c(Br)c1	-6.3	-17.5	i	18.5	-8.0	2.9	-10.8	·
Cc1cccc(-n2nnc(C(=O)N3CCc4ccccc4C3)c2N)c1	-9.4	-1.3	i	-9.6	2.2	-1.9	-76.8	-3.8
O=C(COc1ccc2c3c(c(=O)oc2c1)CCCC3)NCc1ccccn1	-8.3	16.9	i	-12.2	0.6	3.7	-18.6	-12.5
CN(CC(=O)Nc1ccc(F)cc1)C(=O)COC(=O)Cc1cccs1	·	·	i	19.4	1.2	4.0	-8.0	-6.6
Cc1ccc(S(=O)(=O)Nc2cc(=O)[nH]c(SCc3ccccc3Cl)n2)cc1	5.2	-7.6	i	2.3	2.3	-4.1	13.2	·
O=C(COc1ccc(S(=O)(=O)N2CCCCC2)cc1)NCC1CCCO1 (stereo not given)	-8.0	-6.8	i	-7.6	-0.2	0.6	3.5	·
NC(Cc1ccc(C(F)(F)F)cc1)c1csc(Nc2ccc(C(=O)NCCCO)cn2)n1 (stereo not given)	·	·	·	·	-3.7	7.3	0.5	7.3
O=C1CSC(c2cn(-c3ccccc3)nc2-c2cc3ccccc3oc2=O)N1Cc1ccccc1 (stereo not given)	-14.6	-0.4	i	-4.0	-3.4	-3.3	·	-0.6
Nn1c(SCc2cn3cc(Cl)ccc3n2)nnc1-c1ccncc1	-4.7	-0.1	i	-0.3	-2.7	0.1	-23.7	·
O=C(OCc1ccccc1C(F)(F)F)c1ccc(Br)c(S(=O)(=O)N2CCOCC2)c1	·	·	·	·	7.9	-8.7	24.8	-15.8
Cc1ccc(S(=O)(=O)N(C)CC(=O)NCCCn2nc(C)cc2C)cc1	·	·	·	-16.9	-2.6	-2.1	·	-19.1
COc1ccc(-n2ncc3c(=O)n(Cc4c(F)cccc4Cl)cnc32)cc1	-7.1	12.4	i	12.6	9.1	-5.3	-10.7	·
(more compounds)
SMILES	eIF4H inh	PABP FP inh	Rce1 inh	CSC inhib	MT1-MMP act inh	MT1-MMP act inh RFP	HIV Env fusion	UUG fidelity	others
O=C(c1ccc2c(c1)OCO2)N1CCCC1	2.4	-5.8	i	-0.2	-2.2	1.1	-54.0	-4.0
C[C@H]1CN([C@@H](C)CO)S(=O)(=O)c2ccc(Br)cc2O[C@H]1CN(C)Cc1ccccc1F	·	·	·	·	0.8	-1.6	13.8[16.7 µM]	-14.0&-2.1
COc1cc(OC)c2c(-c3cccc(-c4ccc(C(F)(F)F)cc4)c3)cc(=O)oc2c1	·	·	·	·	2.8	-6.9	-39.3	-17.6
O=C(O)CCc1nc(-c2ccc(Cl)cc2)no1	-6.2	-8.4	i	-15.2	-1.0	-0.7	·	·
CCN1CCN(C(=S)c2ccc(Cl)c(Cl)c2)CC1	1.0	8.6	i	-4.3	-4.8	4.1	-100.4	-13.7
COc1cccc(NS(=O)(=O)c2ccc3[nH]cc(C(=O)NCCN4CCOCC4)c(=O)c3c2)c1	-3.7	-6.3	i	-6.2	-0.2	-2.2	·	-12.1
COc1ccc(F)cc1C(=O)C1CCCN(C(=O)Cc2c(C)noc2C)C1 (stereo not given)	-8.5	-2.5	i	-0.2	4.8	0.0	6.6	1.1
CC1(C(=O)NS(=O)(=O)c2cccc(F)c2)CCN1C(=O)CC1CCCCC1 (stereo not given)	·	·	·	·	0.2	5.4	0.4	-4.7
O=S(=O)(NCc1cccs1)c1cccc(S(=O)(=O)N2CCCCC2)c1	7.0	3.2	i	-1.5	10.0	-4.0	·	-6.3
S=C(NCCC1=CCCCC1)Nc1ccc(Cl)cc1	-3.6	1.4	i	9.5	1.0	-8.3	-6.0	-8.6
CCCS(=O)(=O)N1CCN(C(=O)c2ccc(-c3ccccc3)cc2)CC1	0.7	4.3	·	-10.4	1.4	-7.0	-21.9	2.1
O=C(C1CCC(CNS(=O)(=O)c2cccc3cccnc23)CC1)N1CCc2ccccc21 (stereo not given)	-3.3	3.8	i	-9.3	-3.7	-5.7	21.7	-8.7
CCN(CC)CCn1cnc2c1c(=O)[nH]c(=O)n2Cc1ccccc1	-6.7	0.4	i	-7.7	3.8	5.1	6.0	-2.9
O=C(Cc1ccc(Cl)cc1)NCCS(=O)(=O)N1CCN(c2ccccc2)CC1	·	·	i	·	15.9	0.5	·	-14.2
CCCc1ccc2oc(C(=O)N3CCN(c4cnccn4)CC3)c(C)c2c1	-0.6	3.8	i	31.4	0.4	-3.4	7.6	0.6

Three compounds picked at random from those above, as already listed:
SMILES	eIF4H inh	PABP FP inh	Rce1 inh	CSC inhib	MT1-MMP act inh	MT1-MMP act inh RFP	HIV Env fusion	UUG fidelity	others
O=C(Cc1ccc(Cl)cc1)NCCS(=O)(=O)N1CCN(c2ccccc2)CC1	·	·	i	·	15.9	0.5	·	-14.2
S=C(NCCC1=CCCCC1)Nc1ccc(Cl)cc1	-3.6	1.4	i	9.5	1.0	-8.3	-6.0	-8.6
CCCc1ccc2oc(C(=O)N3CCN(c4cnccn4)CC3)c(C)c2c1	-0.6	3.8	i	31.4	0.4	-3.4	7.6	0.6

Compound activity: PubChem, several laboratories
